CapD inh: Bacillus anthracis CapD inhibitors, primary screen, biochemical, fluorescence intensity; z-score (test concentration not listed); purified CapD enzyme, fluorescence intensity read-out; active compounds read low; some hits fall short of the stated cut; 140,000 compounds, 0.23% hits; AID 492967, 2010;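 active = z-score under -4 in either of two replicates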;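 also: stock transfer was 100 nL into about 40 µL; score is relative to mean and spread of the plate; one replicate is shown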
AID504770: growth inhibition of E. coli YBA685, primary screen, V. cholerae RctB inhibitors | E. coli YBA685 rctB-dependent plasmid, OD600 growth, 3 h; active compounds read low | z-score (no concentration beside the values) | 130,000 compounds, 0.27% hits;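 active = z-score under -2 on both plates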;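 also: wells of about 30 µL received 100 nL stock; score is relative to mean and SD of the test wells; the first replicate is given; strong numbers were not always called active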
The depositor's hits bear a star; x = no result given; & = joins results of further samples. This is a subset. The share of hits here may be higher or lower than overall.

SMILES | CapD inh | AID504770
O=C(CNC(=O)C1CCCCC1)Nc1nc2ccccc2s1 | -0.45 | -1.05
Cc1[nH]n(-c2ccccc2)c(=O)c1C(c1ccc(OC(=O)c2ccccc2F)cc1)c1c(C)[nH]n(-c2ccccc2)c1=O | -0.53 | x
CCOC(=O)C1C(C)=C(Nc2ccc(OC)cc2)C(=O)N1c1ccc(OC)cc1 (configuration not stated) | -0.18 | x
O=C(NC1CCCCC1)C1CC(c2c(F)cccc2Cl)=NO1 (configuration not stated) | -0.165 | -0.95
O=C(c1ccc(Br)o1)N(c1ccc(Br)cc1)C1C=CS(=O)(=O)C1 (configuration not stated) | x | 0.5
Cc1cccc(NC(=O)CCn2ccc(C)n2)n1 | -0.625 | -0.25
Oc1ccccc1CN1CCN(Cc2ccccc2O)C1c1c(O)ccc2oc3c(c12)CCCC3 | -0.66 | x
O=C1C(Cc2ccc(-c3nn[nH]n3)cc2)=C(c2ccccc2)S(=O)(=O)c2ccccc21 | 0.55 | 0.25
O=C(C(c1ccccc1)c1ccccc1)N(Cc1ccc(Cl)cc1)Cc1ccc2cc[nH]c2c1 | -0.295 | x
COC(=O)c1ccc(NC(=O)CSc2ncnc3sc4c(c23)CCC4)cc1 | -0.3 | x
O=C(CSc1nnc(SCC(=O)c2ccc[nH]2)s1)c1ccc[nH]1 | x | -0.1
CCc1ccc(C2=NN(c3ccccc3)C3(SC(C(C)=O)=NN3c3ccc(Br)cc3)c3ccccc32)cc1 (configuration not stated) | -0.315 | x
N#Cc1ccc(-n2cccc2)cc1 | -0.065 | x
N/C(COc1ccc2nonc2c1)=N\O | -0.03 | x
N#Cc1cccc(C#N)c1Oc1ccc(N)cc1 | 0.865 | 0.9
COc1ccc(C23CC4CC(CC(C(=O)O)(C4)C2)C3)c(F)c1 | x | 2.05
Fc1ccc(/C=C2\CCCC3=C2Nc2ncnn2C3c2ccc(F)cc2)cc1 (configuration not stated) | -0.01 | x
COc1ccc(-c2n[nH]c(C)c2-c2ccccc2)c(O)c1C | -0.14 | -0.1
Cn1c(SCC(=O)NC2CC2)nnc1C(F)(F)F | x | 0.3
CN=C(N=c1ccc(Br)cn1C(=NC)c1cccs1)c1cccs1 | x | -0.4

Molecules above containing a furan ring, fused or not:
SMILES | CapD inh | AID504770
O=C(c1ccc(Br)o1)N(c1ccc(Br)cc1)C1C=CS(=O)(=O)C1 (configuration not stated) | x | 0.5
Oc1ccccc1CN1CCN(Cc2ccccc2O)C1c1c(O)ccc2oc3c(c12)CCCC3 | -0.66 | x

Three compounds already listed, arranged by SMILES length, descending.
SMILES | CapD inh | AID504770
CCc1ccc(C2=NN(c3ccccc3)C3(SC(C(C)=O)=NN3c3ccc(Br)cc3)c3ccccc32)cc1 (configuration not stated) | -0.315 | x
Oc1ccccc1CN1CCN(Cc2ccccc2O)C1c1c(O)ccc2oc3c(c12)CCCC3 | -0.66 | x
N#Cc1ccc(-n2cccc2)cc1 | -0.065 | x

Other records
SMILES | CapD inh | AID504770
O=C(CSc1nc2ccccc2n1S(=O)(=O)Cc1ccccc1)c1ccc(Cl)cc1 | -0.185 | x
CC1(C)CC(=O)C2=C(C1)N(c1ccc(Br)cc1F)C(N)=C(C#N)C2c1cccs1 (configuration not stated) | 2.54 | x
COc1cc2c3nc4n(c(=O)c3n(CC(=O)N3CCCC3)c2cc1OC)CCS4 | x | -0.65
CCCNC(=O)c1ccc(CS(=O)c2ccc(Cl)cc2)o1 (configuration not stated) | 0.455 | -0.7
N#Cc1cc[n+](CC(=O)c2ccc(NC(=O)c3ccccc3)cc2)cc1 | -0.175 | -0.05
CC(C)[C@H](NC(=O)c1ccco1)C(=O)N(C)Cc1ccc(C(F)(F)F)cc1 | x | -0.2
COc1ccc(NC(=O)CC2CC3CCC2C3)cn1 (configuration not stated) | x | -0.05
Cc1csc2c(SCC(=O)NNC(=O)OCc3cccc(OCc4ccccc4)c3)ncnc12 | 0.705 | x
COc1ccc(/C(C#N)=C/c2ccc(NC(C)=O)cc2)cc1 | 1.15 | x
CCOC(=O)C1=C(C)NC2=C(C(=O)c3ccccc32)C1c1ccc2c(c1)OCO2 (configuration not stated) | 0.76 | x
CCCc1c(C(=O)Nc2cc(F)ccc2F)cnn1C | 0.565 | 0.4
CN1C(=O)N(C)C2OC3OC4C(OC3OC21)N(C)C(=O)N4C (configuration not stated) | x | 1.3
CC(=O)NC1(c2ccccc2)CCN(Cc2nnnn2C(C)(C)C)CC1 | x | -0.45
COc1ccc(-c2nc(Nc3ccc4c(c3)OCCO4)c3ccccc3n2)cc1OC | 0.155 | x
COc1ccc2oc(-c3ccccc3)cc(=O)c2c1 | 28.1 | 0.65
O=C(NCc1ccncc1)c1cn(-c2ccccc2)nc1-c1cccs1 | 1.42 | -0.25
N=c1oc2ccc(Br)cc2cc1-c1nc(-c2cc3ccccc3oc2=O)cs1 | 1.76 | x
O=C(NCc1ccccc1Cl)c1ccc(OCc2ccccc2)cc1Cl | 0.26 | x
Cc1ccc(/C=C2\SC(=S)N(C(Cc3ccccc3)C(=O)O)C2=O)cc1 (configuration not stated) | -0.085 | x
Cc1ccc(NC(=O)CSc2nccn2-c2ccccc2)cc1 | x | 0.4
Cn1c(CC(C)(C)C)nc2ccccc21 | 0.095 | -0.3
NC(=O)c1ccsc1NC(=O)c1ccc(Br)s1 | 0.225 | 1.1
CC(=O)Oc1cccc(O)c1 | -1.24 | 0.6
O=C(Nc1ncn[nH]1)/C(=C/c1ccc(Cl)cc1)c1ccc(F)cc1 | -1.07 | -0.95
O=C1CC2(CC(=O)Oc3cc(O)ccc32)c2ccc(O)cc2O1 | 3.9 | -0.1
CCOc1cc(C=C2C(=O)NC(=O)NC2=O)cc(Br)c1OCCOc1ccccc1OC | -0.675 | x
COc1ccccc1CNC(=O)c1cn(C)c2ccc(S(=O)(=O)N3CCCCC3)cc2c1=O | -0.44 | 0.05
CCN1C=C/C(=C\c2cc[n+](CC)c3ccccc23)c2ccccc21 | 0.165 | 1.2
CCOc1ccc(CNC(CC(C)C)C(=O)O)cc1 (configuration not stated) | -0.575 | -0.6
COc1ccc(CCNC(=O)CSc2nc3ccccc3[nH]2)cc1OC | -0.14 | x
Cc1[nH]n(-c2ccccc2)c(=O)c1C(c1ccccc1C(F)(F)F)c1c(C)[nH]n(-c2ccccc2)c1=O | -0.135 | x
O=C(O)CCC(=O)N1CCN(c2ncccc2C(F)(F)F)CC1 | -1.19&0.55 | -0.25
O=C(/C=C/c1cc(Cl)c2c(c1)OCCCO2)Oc1ccc(-c2nnco2)cc1 | x | -0.3
Cc1ccc(NC(=O)N2CCCC2C(=O)NCC2CCCCC2)cc1 (configuration not stated) | x | -0.5
c1ccc(N2CCN(c3ccccn3)CC2)cc1 | x | -0.25
O=C(Cn1c(=O)oc2cc(Cl)ccc21)N1CCC2(CC1)OCCO2 | -1.08 | -0.7
CCOC(=O)c1sc2nc(C)n(CC(=O)Nc3ccc(Oc4ccccc4)cc3)c(=O)c2c1C | 0.49 | x
CC(CC(=O)N1CCCc2ccccc21)S(=O)(=O)c1ccc2c(c1)NC(=O)CO2 (configuration not stated) | 0.375 | -0.5
CCOC(=O)c1c(-c2ccc(OC)cc2)oc2ccc(OC(=O)N3CCOCC3)cc12 | x | 2.2
COc1ccccc1C(=O)COC(=O)c1ccccc1C(F)(F)F | 0.055 | -0.3
CCSc1ncnc2c1sc1nc3c(cc12)COC(C)(C)C3 | 0.035 | -0.85
COc1cccc(C2=NN3C(C2)c2cc(Cl)ccc2OC3c2cccc(Cl)c2)c1 (configuration not stated) | -0.575 | x
S=c1[nH]nc(CCN2CCN(c3ccc(Cl)cc3)CC2)n1-c1ccccc1 | x | -0.2
Cc1ccc(S(=O)(=O)N(CC(O)Cn2c3ccccc3c3ccccc32)c2ccc(Cl)cc2)cc1 (configuration not stated) | 2.27 | x
COc1ccc(C(=O)ON=C2CCN(c3ccc([N+](=O)[O-])cc3)CC2)cc1 | -0.005 | x
CCCCC(=O)Nc1c(-c2ccccc2)nc2ccccn12 | 53.7 | -0.75
CCCC(=O)Nc1sccc1C#N | -0.105 | -1.05
CCOC(=O)C1CCCN(C(=O)C2c3ccccc3Oc3ccccc32)C1 (configuration not stated) | -0.14 | 0.9
O=c1c2ccccc2[nH]c(=S)n1CC1CC1 | -0.895 | x
O=C(CNc1cc(Cl)ccc1N1CCOCC1)N1CCCc2ccccc21 | x | -0.3
CCOC(=O)c1c(NC(=O)c2ccc(Cl)cc2)sc(C(=O)Nc2ccc(C)c(Cl)c2)c1C | 0.27 | x
COC(=O)c1nc2nc(C)cc(C)n2n1 | -0.27 | 0.35
CC1CN(c2nc3ccccc3nc2SCC(=O)NCc2ccccc2Cl)CC(C)O1 (configuration not stated) | -0.045 | 0.1
CN(C)S(=O)(=O)c1ccc2c(c1)C(=NNC(N)=O)c1cc(S(=O)(=O)N(C)C)ccc1-2 | 0.045 | -0.95
Cc1ccc(S(=O)(=O)Nc2ccccc2C(=O)NCc2ccco2)cc1 | x | -1.3
O=C(O)CC1SC(=Nc2ccccc2)N(c2ccccc2)C1=O (configuration not stated) | 0.035 | 0.75
O=C(c1cccc(S(=O)(=O)N2CCCC2)c1)N1CCN(c2ccccc2)CC1 | x | -0.8
CN(CCOC(=O)N1CCC2(CC1)C(=O)NCN2c1ccccc1)c1ccccc1 | -0.825 | x
C=CCSC1=NC(C)(C)C=C(/C=C/c2ccc(Cl)cc2Cl)N1 | 0.175 | x
Cc1cc(SC(C)C(=O)O)nc2ccccc12 (configuration not stated) | 8.91 | -0.2
Additional results:
SMILES | CapD inh | AID504770
CC1(C)CC(=O)C2=C(C1)NC1=C(C(=O)CC(C)(C)C1)C2c1ccc(O)cc1 | -0.655 | x
CCc1nc2ccccc2n1CC(=O)N(c1ccccc1)C(C)C | 0.13 | -0.4
O=C(CSc1nc2[nH]c(=O)[nH]c(=O)c2s1)c1ccccc1 | x | -0.05
CCOc1ccc(CC(=O)O)cc1 | -0.355 | -1.45
FC(F)(F)c1cc(NCc2ccccc2Cl)nc(-c2ccccn2)n1 | 0.885 | x
CCCN1CCC(N(C(=O)c2ccc(NC(=O)c3ccc(S(C)(=O)=O)cc3)cc2)C2CC2)CC1 | -0.325 | x
O=C(Cn1c(=O)n(-c2ccccc2)c(=O)n1CC(=O)N1CCCCC1)N1CCCCC1 | -0.845 | -0.35
COc1cccc(-c2nnn(CCc3nn[nH]n3)n2)c1 | x | -0.25
COc1cc(/C=C2/NC(=S)NC2=O)ccc1OC(=O)C12CC3CC(CC(C3)C1)C2 | -0.01 | x
O=C(NCCN1CCNC1=O)c1cnn(-c2ccc(Cl)cc2)c1C(F)(F)F | -0.825 | 0.5
O=C(O)CCn1c(=O)c2cc3c(=O)n(CCC(=O)O)c(=O)c3cc2c1=O | 0.225 | -0.15
O=C1CCCC2=C1C(c1ccccc1)N=C(Nc1nc3ccccc3s1)N2 (configuration not stated) | 6.18 | 0.55
Cc1ccc(C(=O)N2CCN(c3ncnc4c(C)csc34)CC2)cc1 | 1.38 | 1.5
O=C(O)/C=C/c1ccc2c(c1)OCCO2 | x | -0.7
CC1(C)CC(CCNCc2ccc3c(c2)OCO3)(Cc2ccccc2)CCO1 (configuration not stated) | -0.045 | -1
N#CCSc1nc2sc3c(c2c(=O)[nH]1)CCCC3 | x | -0.8
Cc1ccc(N2C(=O)NC(=O)/C(=C\c3cc(C)n(-c4cc(C(=O)O)cc(C(=O)O)c4)c3C)C2=O)cc1 | -1.14 | x
Cc1cc2nc3s/c(=C/c4cc([N+](=O)[O-])c(N5CCOCC5)cc4N4CCOCC4)c(=O)n3c2cc1C | -0.2 | x
CCc1c(C)nc2c(OC)cccc2c1Cl | x | -0.5
Cc1cc(C)n(-c2nc3ccccc3nc2Sc2nc3ccccc3s2)n1 | 0.14 | 0.4
COCCNC(=S)N1c2ccccc2CC1C (configuration not stated) | x | -1.2
N#CC(=C1CCCC1)c1nc(-c2ccccc2O)cs1 | 0.095 | x
CC1CCCC(NC(=O)CSc2nccn2C)C1C (configuration not stated) | 0.065 | -1.35
CCOC(=O)c1c(C)noc1-c1csc(Nc2c(C)cc(C)cc2C)n1 | 13.2 | -0.3
CCCCC(=O)N(c1ccc(OC)cc1)C1C=CS(=O)(=O)C1 (configuration not stated) | -2.29 | -1.6
Cc1nc2c3ccccc3n3c(CCCC(=O)NCCc4ccccc4)nnc3n2n1 | 0.015 | -0.45
O=C(OCCN1C(=O)c2cccc3c(N4CCCCC4)ccc(c23)C1=O)c1cccc([N+](=O)[O-])c1 | 1.2 | x
O=C(Nc1ccc(F)cc1)C1(c2ccccc2)CCOCC1 | 0.355 | 0.15
CCn1c(SCC(=O)c2ccccc2)nnc1-c1ccco1 | x | -0.55
CCCn1c(N)c(C(=O)CSC2=NC(C(C)C)C(=O)N2c2ccc(C)cc2)c(=O)n(C)c1=O (configuration not stated) | x | 2.1
CN(C)C(CNC(=O)c1ccc2ccccc2n1)c1ccccc1 (configuration not stated) | x | 0

Quoted at random: 3 compounds from above.
SMILES | CapD inh | AID504770
CC1CCCC(NC(=O)CSc2nccn2C)C1C (configuration not stated) | 0.065 | -1.35
Cn1c(CC(C)(C)C)nc2ccccc21 | 0.095 | -0.3
COc1ccc(-c2nc(Nc3ccc4c(c3)OCCO4)c3ccccc3n2)cc1OC | 0.155 | x

From PubChem BioAssay
